Screens as filed in PubChem.
Sfp inh: inhibitors of Bacillus subtilis Sfp phosphopantetheinyl transferase. Biochemical Sfp PPTase activity, qHTS. Potency, µM, inactives show max response, negative = inhibition, actives largely listed as inhibitors. 3.5% of 310,000 active. Q9F4F7; active means well fitted inhibition curve with a large enough effect; inconclusive means small, poorly fitted or top-dose-only effect, or another doubt; inactive means no such curve, though single readings can be large or run the other way;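 further: the enzyme is Sfp with the accession as filed and its product quenches rhodamine fluorescence; potency means the concentration at half of the fitted maximal effect; 0% = enzyme reaction without inhibitor and -100% = no enzyme wells; top concentration of the series not given in the record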
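Reaction rates are the 30-min fluorescence difference (ex 525, em 598 nm) in wells containing 15 nM Sfp, 5 uM rhodamine-CoA and 12.5 uM BHQ-2-YbbR at pH 7.6 with 10 mM MgCl2.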
gsp antagonist: gsp mutant antagonism | 0.4% of 340,000 active | gsp-mutant cells, cAMP HTRF, 30 min; control for the full effect not named in the record | AID 624288 | Potency, µM (doses to about 76.9 µM), for the others: at the top dose activity change, negative = inhibition, usual class: inhibitors; active = falling curve of any shape with a large fitted effect; inconclusive = falling curve, mostly with a smaller effect; inactive = flat or rising curve; cell line not stated here;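 further: intracellular cAMP measured with PDE inhibitor Ro 20-1724 present during compound exposure; potency means the concentration at half of the fitted maximal effect; on the % scale 0 is the no-effect control and ±100 the full control effect; nearly all actives have a fitted effect of over 65% in size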
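HTRF cAMP measurement after 30 min RT detection following 30 min, 37C compound treatment alongside […] (added as 300 uM solution) in G418-selected cells seeded at 2000/well and grown 16–24 h.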
D2 ag: agonists of human D2 dopamine receptor (beta-arrestin). P14416. DiscoveRx PathHunter D2 beta-arrestin, luminescence, 90 min; 100% = 57 uM dopamine signal. activation, % (concentration not given with the values). 0.084% of 360,000 active; in the data active = activation above about 40%; inconclusive = about 15% to 40%; inactive = below about 15%; further: compound concentration not given in the record; the text of the record calls up to 30% inactive
Target sequence (P14416 whole entry, looked up): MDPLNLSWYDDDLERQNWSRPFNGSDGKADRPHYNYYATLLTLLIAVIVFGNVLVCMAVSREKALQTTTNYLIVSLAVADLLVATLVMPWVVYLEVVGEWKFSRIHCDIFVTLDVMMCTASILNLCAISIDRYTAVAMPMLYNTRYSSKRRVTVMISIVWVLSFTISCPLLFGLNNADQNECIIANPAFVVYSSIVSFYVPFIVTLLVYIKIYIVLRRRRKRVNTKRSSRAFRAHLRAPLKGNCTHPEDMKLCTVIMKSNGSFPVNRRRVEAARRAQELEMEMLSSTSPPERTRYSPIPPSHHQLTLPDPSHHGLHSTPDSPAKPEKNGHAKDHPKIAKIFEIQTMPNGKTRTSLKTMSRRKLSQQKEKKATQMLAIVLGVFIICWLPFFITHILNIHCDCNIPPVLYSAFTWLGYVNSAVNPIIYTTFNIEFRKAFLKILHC
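Agonist mode: compounds alone added to overnight-plated D2 PathHunter cells for 90 min at 37 C, with 57 uM final dopamine (EC100) defining full response. Beta-arrestin recruitment detected by chemiluminescent reagent, read after 1 h at ambient temperature.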
gsp agonist: gsp mutant agonism. AID 624287. 0.13% of 340,000 active. Potency, µM (highest dose often 76.9 µM), inactives show at the top dose activation (cAMP increase), hits mostly activators. gsp mutant cells, cAMP HTRF, 30 min; control for the full effect not named in the record; active = well fitted activation curve with a large enough effect; inconclusive = small, poorly fitted or top-dose-only effect, or another doubt; inactive = no such curve, though single readings can be large or run the other way; cell line not stated here;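 further: phosphodiesterase inhibitor Ro 20-1724 added with compounds to block cAMP breakdown; potency means the concentration at half of the fitted maximal effect; nearly all actives have a fitted effect of over 60% in size; about a fifth of the inactives were tested at one dose only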
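Cells stably selected in G418 were plated at 2000/well, grown 16-24 hr, then given compounds in DMSO with the PDE inhibitor […] (300 uM solution added) for 30 min at 37C; cAMP was read by HTRF.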
Menin-MLL FL inh: inhibitors of human menin-MLL interaction, wild-type MLL peptide | 290,000 tested, under 10 active | AID 1766 | FP activity change, % at 61.4 µM | Fluorescence polarization, fluorescein-MLL peptide displacement from menin; inconclusive = falling polarisation curve, or a change in total fluorescence; inactive = total fluorescence flat and polarisation flat or rising; no compound was filed as active; the % refers to the polarisation; negative = inhibition;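 further: % of control where 0% means no effect; inhibitors lower the polarisation; unlabelled MLL peptide was the positive control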
PINK1 modulator: modulators of PINK1 expression | PINK1 immunofluorescence, high-content cytometry, 24 h | Potency, µM (titrated, usually from 76.6 µM), inactives show top-dose activation (PINK1 increase), most hits filed as activators | 0.2% of 410,000 active | AID 624263; active = well fitted activation curve with a large enough effect; inconclusive = small, poorly fitted or top-dose-only effect; inactive = flat fitted curve, though single readings scatter; cell line not stated here;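 further: potency means the concentration at half of the fitted maximal effect; % of control where 0% means no effect; nearly all actives have a fitted effect of over 65% in size; a mitochondrial uncoupler was the plate control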
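PINK1 protein, normally rapidly degraded, was detected by immunofluorescence after 24 hour compound treatment of a stable cell line. Titration data (5 concentrations) came from laser-scanning cytometry, with CCCP-treated wells as controls.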
ClpP mod: qHTS Assay for Activators of ClpP; ATP-dependent Clp protease proteolytic subunit (Bacillus subtilis (strain 168)), P80244; 1.9% of 340,000 active; Potency, µM (doses to about 57.5 µM), inactives show at the top dose activity change, negative = active; purified B. subtilis ClpP, FRET peptide cleavage, 20 min; AID 651965, 2013; active = well fitted falling curve with a large enough effect; inconclusive = small, poorly fitted or top-dose-only effect; inactive = no such curve, though single readings can be large or run the other way; further: potency means the concentration at half of the fitted maximal effect; the source files actives as falling curves though it sought activators and does not explain the sign; nearly all actives have a fitted effect of over 65% in size; many hits overshoot -100%
Target sequence (P80244 whole entry, looked up): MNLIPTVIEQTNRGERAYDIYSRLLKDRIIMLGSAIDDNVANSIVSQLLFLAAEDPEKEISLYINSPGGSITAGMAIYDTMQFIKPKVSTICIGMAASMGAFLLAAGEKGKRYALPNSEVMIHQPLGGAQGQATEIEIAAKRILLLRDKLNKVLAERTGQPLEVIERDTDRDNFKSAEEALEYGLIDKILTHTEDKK
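Buffer: 100 mM Tris/HCl pH8, 100 mM KCl, 0.05% low protease BSA, 2.5% glycerol, 0.01% Tween-20. ClpP 10 microg/mL final; 20 min RT; delta FRET normalized to ADEP and DMSO controls.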
* marks the source's active call; other numbers are inactive results; ? = inconclusive; . = no result given; [ ] = another dose, or the depositor's remark.

SMILES	Sfp inh	gsp antagonist	D2 ag	gsp agonist	Menin-MLL FL inh	PINK1 modulator	ClpP mod
COc1ccccc1C(=O)Nc1ccc(OCC(=O)N2CC(C)OC(C)C2)cc1 (stereo unspecified)	.	4%	3.7	-33%[inhibitor]	.	0.4%	-0.1%
Cc1c(NS(=O)(=O)c2ccc3c(c2)n(C)c(=O)n3C)c(=O)n(-c2ccccc2)n1C	14%	10%	-1.7	17%	2.5	0.8%	-2.7%
O=c1[nH]ncc(N/N=C\c2cccs2)c1Cl	0%	6%	10	-14%	1.3	-0.1%	.
CN(C)S(=O)(=O)c1ccc(-c2ccccc2)cc1	15%	3%	1.4	-9%	1.9	3.7%	-2.5%
CCCC(NC(=O)C(C)Sc1nnnn1C1CC1)c1ccccc1 (stereo unspecified)	.	8%	-2.6	17%	.	0.3%	1.8%
CCOC(=O)c1cc2c(nc1N)CCCC2	-11%	6%	-6.3	-30%	9.7	1.4%	3.5%
CCOC(=O)NC(NC(=O)OCC)C(=O)c1ccccc1	2%	4%	-1.4	1%	4.5	3.6%[38.3 µM]	-3.5%
O=C(CCCCC(=O)OCC1CCCO1)OCC1CCCO1 (stereo unspecified)	.	15%	0.4	-43%[inhibitor]	.	3.3%	.
O=C(Nc1nnc(S(=O)(=O)Cc2ccc(F)cc2)s1)c1ccccc1F	19%	?	0.8	?	.	0.6%	-11%
O=C(Nc1ccc(F)cc1)Nc1ccc(N2CCCC2)c(S(=O)(=O)Nc2ccccc2Cl)c1	20%	-9%	?	11%	0.2	?	-5.7%
CCOc1ccc2nc(SCC(=O)c3ccccc3)sc2c1	?	-6%	1.7	-5%	-1.4	.	0.6%
N#Cc1cccc(-c2csc(C(O)c3ccco3)n2)c1 (stereo unspecified)	.	.	-2.7	.	.	-0.7%	-2.1%
CCN(C[C@H]1N[C@@](Cc2ccccc2)(C(=O)OC)[C@H]2C(=O)N(C)C(=O)[C@@H]12)C(=O)c1ccc(C(C)(C)C)cc1	.	-13%	0.0	.	.	1.6%	0.7%
COc1ccccc1N1CCN(C(=O)Cn2nnc(-c3ccncc3)n2)CC1	9%	-1%	0.0	-14%	4.5	-2.9%[38.3 µM]	-1.1%
CCN(CC)C(=O)/C=C/c1ccccc1	.	3%	-3.7	.	.	0.5%	0.6%
Cc1noc(C)c1-c1nccc(Nc2ccc(F)cc2)n1	-9%	.	.	.	0.8	1.4%	.
O=C(NCc1ccncc1)C1CCN(S(=O)(=O)c2cc(Cl)ccc2Cl)CC1	11%	1%	-3.7	-14%	-6.7	-1.7%	.
CCCCc1nnc(SCC(=O)Nc2nccs2)n1C	21%	-5%	-0.4	8%	-1.5	0.4%	0.5%
Cc1cc(C)n(CC(C)NC(=O)c2cc(COc3c(F)cccc3F)on2)n1 (stereo unspecified)	4%	9%	-0.5	10%[15.4 µM]	-3.5	0.2%	2.4%
CCS(=O)(=O)N1CCCC(C(=O)NCc2ccccc2Cl)C1 (stereo unspecified)	1%	6%	-1.2	-8%	-1.7	0.3%	1.6%

Two records drawn at random from those above:
SMILES	Sfp inh	gsp antagonist	D2 ag	gsp agonist	Menin-MLL FL inh	PINK1 modulator	ClpP mod
CCOc1ccc2nc(SCC(=O)c3ccccc3)sc2c1	?	-6%	1.7	-5%	-1.4	.	0.6%
CCS(=O)(=O)N1CCCC(C(=O)NCc2ccccc2Cl)C1 (stereo unspecified)	1%	6%	-1.2	-8%	-1.7	0.3%	1.6%

Next results.
SMILES	Sfp inh	gsp antagonist	D2 ag	gsp agonist	Menin-MLL FL inh	PINK1 modulator	ClpP mod
Cc1cccc(C)c1NC(=O)CN(C)CC(=O)c1c(N)n(Cc2ccccc2)c(=O)n(C)c1=O	.	-13%	-2.2	?	.	1.0%	-0.6%
C=CCOc1ccc(/C=C2\SC(=S)N(N3CCOCC3)C2=O)cc1	7%	-2%	1.7	3%[15.4 µM]	3.7	-0.4%	.
COc1c(C=NNC(N)=O)c(OC)c(OC)c2c1CCO2	.	5%	-0.4	-1%	.	-0.4%	.
COc1ccccc1N1CCN(c2nc(C)nc3c2oc2ccccc23)CC1	25µM*	-19%	-1.1	-7%	1.0	25%[38.3 µM]	32µM*
COc1ccc(/C=N/NC(=O)c2snnc2C)c(OC)c1OC	1%	2%	2.9	7%	-0.6	-1.1%	.
CCCCCNCC(=O)Nc1cccc(C(=O)Nc2cccc(C(F)(F)F)c2)c1	32µM*	7%	0.3	4%[15.4 µM]	0.6	-3.4%	28µM*
COc1ccc(N2CCN(C(=O)CN(C3CCCCC3)S(C)(=O)=O)CC2)cc1	13%	0%	-0.8	11%[15.4 µM]	0.1	-0.7%	.
CC(C)(C)c1ccc(CC(=O)N2CCC2(C)C(=O)Nc2cccc3c2CCCC3)cc1 (stereo unspecified)	.	.	-2.7	.	.	8.3%	1.5%
COC(=O)CN1C(=O)[C@H]2[C@@H](/C=C/c3ccccc3)N3C(=O)CN(CC4CC4)C(=O)[C@@]3(Cc3ccccc3)[C@H]2C1=O	4%	-4%	-3.2	7%	-0.7	0.3%	-0.4%
CN1C(C(=O)NCCc2cccs2)CC2Cn3c(nc4cc5ccccc5cc43)C21 (stereo unspecified)	7%	-17%	-1.5	-19%	4.0	-0.4%	3.9%
Cc1ccc(O)c(-c2cc(-c3cccc(F)c3)n[nH]2)c1	2%	-22%	0.7	-26%	-2.2	3.7%	-0.2%
NC(=O)COc1ccc(C2c3c(oc4ccccc4c3=O)C(=O)N2CC2CCCO2)cc1 (stereo unspecified)	12%	3%	-4.0	9%	1.4	5.5%[38.3 µM]	-0.7%
C/C(=N\OC(=O)c1ccc(Cl)cc1)c1nccs1	15%	2%	-3.2	31%	1.9	.	0.0%
NC(=O)CC[C@@H]1NC(=O)[C@@H]2CCCN2C(=O)c2cc([N+](=O)[O-])cc(I)c2NCCC[C@@H](C(=O)NC(CC(=O)O)C(N)=O)NC1=O (stereo partly specified)	21%	10%	0.2	.	-2.3	0.4%	-0.8%
CC(C)Oc1ccc(Br)cc1/C=N\NC(N)=S	-7%	4%	-2.8	?	1.1	7.1%	-14%
Cc1ccc(CNC(=O)c2ccc(N3CCC4(CC3)CC(c3ccccc3)=NO4)c(NC(=O)c3ccccc3)c2)cc1	.	-6%	-5.2	.	.	0.1%	?
Cc1ccc2c(c1)N(S(=O)(=O)c1cc(-c3cc(C)no3)ccc1C)CCO2	-5%	-10%	-0.1	-109%[inhibitor]	-7.5	1.5%	-2.8%
O=C1CCCCC1Sc1nnc(-c2ccc3c(c2)OCO3)o1 (stereo unspecified)	17%	-12%	2.7	14%	-2.1	1.1%	.
COCCNC(=O)c1onc(CSc2ccccc2)c1C(=O)NCCOC	.	6%	-3.5	.	.	1.3%	2.7%
CCOC(=O)C1(Cc2cccc(Cl)c2)CCCN(C(=O)c2occc2C)C1 (stereo unspecified)	-3%	-19%	1.5	-2%	.	0.0%	1.4%
Cc1cccc(NC(=O)Cn2c(O)c(N=NC(=O)c3ccncc3)c3ccccc32)c1	9%	9%	-1.5	9%[15.4 µM]	-1.2	7.3%	.
CCc1cccc(CC)c1NC(=O)CSc1nnc(CCC(=O)O)c(=O)[nH]1	4%	6%	-0.3	7%[15.4 µM]	4.9	-0.2%	.
COc1ccc(-c2cc(=O)c3cc(OC)c(OC)cc3[nH]2)cc1	26%	1%	-3.1	18%	-2.3	0.0%	4.0%
CCOc1ccc(Cl)cc1-c1cc(C(=O)NCCOC)[nH]n1	.	.	-3.8	.	.	1.0%	-3.4%
CCNC(=S)N(CCO)Cc1cc2cc3c(cc2[nH]c1=O)OCO3	?	0%	-1.4	-1%	0.7	3.1%	4.3%
Cc1ccc(S(=O)OCC(=O)Nc2cc(Cl)ccc2N2CCOCC2)cc1 (stereo unspecified)	9%	-23%	5.2	10%	-4.2	-1.4%	4.3%
Nc1nnc(-c2ccc([N+](=O)[O-])o2)s1	.	3%	3.9	-35%[inhibitor]	.	-3.0%	.
CC(C)c1cc(=O)n2[nH]c(SCc3ccccc3Cl)nc2n1	8%	-14%	6.4	2%	-2.1	0.8%	.
CCOC(=O)N1CCN(c2nc(=S)n(-c3ccccc3)c(C)c2C(C)=O)CC1	-14%	-9%	-0.4	-39%[inhibitor]	1.8	3.9%	-0.5%
Fc1ccc(-c2ccnc(=S)[nH]2)cc1	20µM*	-1%	0.8	-44%[inhibitor]	0.4	-6.1%[38.3 µM]	-2.8%
COc1ccc(N(CC(=O)NCc2cccs2)S(=O)(=O)c2cccc(C)c2)cc1	.	-2%	3.9	-38%[inhibitor]	.	2.5%	-1.1%
O=C(NC1CCOC1)c1cc(COc2cccc(C(F)(F)F)c2)on1 (stereo unspecified)	5%	-8%	0.3	16%	.	2.0%	0.6%
COc1ccc(S(=O)(=O)NCC(=O)Nc2ccc(F)cc2)cc1	.	7%	-2.4	-25%	.	1.0%	1.1%
Cc1c(Cl)cccc1NC(=S)N(Cc1ccccc1)Cc1cccnc1	-4%	?	-4.0	26%	-0.1	1.3%	1.2%
Cc1ccccc1Oc1cccc(C(=O)/C(C#N)=C/N(C)C)c1	2%	-23%	1.7	0%	0.0	2.2%	-2.5%
O=c1oc2ccccc2c2c1SC(C(F)(F)F)C2 (stereo unspecified)	19%	-14%	-1.6	-34%[inhibitor]	0.8	-0.2%	-6.5%
CC(C)(C)N1C(=O)[C@H]2[C@@H](c3ccc(Br)cc3)N3C(=O)N(c4ccccc4)C(=O)[C@@]3(Cc3ccccc3)[C@H]2C1=O	.	-6%	-3.6	25%	.	0.0%	-0.4%
CN(CC(=O)NCCc1ccc(F)cc1)Cc1ccc(Br)cc1	19%	1%	0.1	-1%[15.4 µM]	2.5	0.6%	.
CCOc1ccc(NC(=O)CSc2nc(N3CCOCC3)nc(N3CCOCC3)n2)cc1	9%	-1%	1.0	-8%	.	-1.6%	0.6%
COc1ccc(S(=O)(=O)N(Cc2cc3cc(C)ccc3[nH]c2=O)CC2CCCO2)cc1 (stereo unspecified)	4%	-7%	-3.6	16%	0.6	0.3%[38.3 µM]	?
O=C(COC(=O)c1ccc(CO)cc1)Nc1ccc2ccccc2c1	.	4%	9.1	-2%	.	1.2%	-0.8%
CC1(C)NC(=O)N(CC(=O)OCC(=O)c2ccc(Cl)s2)C1=O	.	5%	-1.8	?	.	-1.4%	.
